Assay outcomes: PubChem, National Center for Advancing Translational Sciences (NCATS)
ClpP mod – qHTS Assay for Activators of ClpP; purified B. subtilis ClpP, FRET peptide cleavage, 20 min; Potency, µM (series often up to 57.5 µM), without a hit: at the top dose activity change, negative = active; 1.9% of 340,000 active; active = well fitted falling curve with a large enough effect; inconclusive = small, poorly fitted or top-dose-only effect; inactive = no such curve, though single readings can be large or run the other way; also: potency is read from the fitted curve at half-maximal effect; the source files actives as falling curves though it sought activators and does not explain the sign; nearly all actives have a fitted effect of over 65% in size; many hits overshoot -100%
Target sequence (P80244 whole entry, looked up): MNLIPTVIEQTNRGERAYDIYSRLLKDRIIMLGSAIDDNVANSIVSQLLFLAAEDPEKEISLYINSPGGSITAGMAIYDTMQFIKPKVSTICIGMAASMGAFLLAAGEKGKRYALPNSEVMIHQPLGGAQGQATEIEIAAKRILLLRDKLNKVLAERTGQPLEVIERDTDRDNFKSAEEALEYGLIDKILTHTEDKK
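ClpP 10 microg/mL final, pH 8 Tris/KCl buffer with BSA, glycerol, Tween-20; compound pinned in; FRET-FV substrate; RT 20 min; Ex320/Em430; ΔFRET vs ADEP 5.8 microM, DMSO, no enzyme.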
PINK1 modulator – changes PINK1 expression | PINK1 immunofluorescence, high-content cytometry, 24 h | AID 624263 | Potency, µM (series often up to 76.6 µM), for inactives: at the highest dose activation (PINK1 increase), most hits filed as activators | 0.2% of 410,000 active; active = well fitted activation curve with a large enough effect; inconclusive = small, poorly fitted or top-dose-only effect; inactive = flat fitted curve, though single readings scatter; cell line not stated here;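 also: potency is read from the fitted curve at half-maximal effect; % of control where 0% means no effect; nearly all actives have a fitted effect of over 65% in size; a mitochondrial uncoupler was the plate control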
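Stable cell line, 250 cells/well, 12 h attachment; compounds pinned at 5 concentrations, 24 h; CCCP control. Fixed with nuclear dye, primary antibodies 12 h at 10 degrees C, secondary plus cell stain; laser-scanning cytometer read.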
Menin-MLL FL inh – displaces fluorescein MLL peptide from human menin. Fluorescence polarization, fluorescein-MLL peptide displacement from menin. FP activity change, % at 61.4 µM. 290,000 tested, under 10 active. AID 1766; inconclusive = falling polarisation curve, or a change in total fluorescence; inactive = total fluorescence flat and polarisation flat or rising; no compound was filed as active; the % refers to the polarisation; negative = inhibition;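 also: % of control where 0% means no effect; inhibitors lower the polarisation; unlabelled MLL peptide was the positive control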
Sfp PPTase inh – blocks B. subtilis Sfp PPTase activity; 3.5% of 310,000 active; Potency, µM, for inactives: max response, negative = inhibition, actives largely listed as inhibitors; Q9F4F7; Biochemical Sfp PPTase activity, qHTS; AID 1490; active = well fitted inhibition curve with a large enough effect; inconclusive = small, poorly fitted or top-dose-only effect, or another doubt; inactive = no such curve, though single readings can be large or run the other way;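 also: the enzyme is Sfp with the accession as filed and its product quenches rhodamine fluorescence; potency is read from the fitted curve at half-maximal effect; 0% = enzyme reaction without inhibitor and -100% = no enzyme wells; top concentration of the series not given in the record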
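Buffer: 50 mM Hepes-Na pH 7.6, 10 mM MgCl2, 0.01% Nonidet P-40, 0.01% BSA. Enzyme 15 nM, pre-exposed to compound 15 min; substrates then added and fluorescence change tracked over 30 min.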
TRPV1 potentiator – human TRPV1 potentiation; potentiation, % at 8.33 µM; Q8NER1; TRPV1-expressing cells, Fluo-8 calcium influx, capsaicin EC20 potentiation; host cell line not named in the record; control for the full effect not named in the record; AID 540277; 0.02% of 320,000 active; active means potentiation above 80%; inconclusive means 30% to 80%; inactive means below 30%; also: 0% is about no effect
Target sequence (Q8NER1 whole entry, looked up): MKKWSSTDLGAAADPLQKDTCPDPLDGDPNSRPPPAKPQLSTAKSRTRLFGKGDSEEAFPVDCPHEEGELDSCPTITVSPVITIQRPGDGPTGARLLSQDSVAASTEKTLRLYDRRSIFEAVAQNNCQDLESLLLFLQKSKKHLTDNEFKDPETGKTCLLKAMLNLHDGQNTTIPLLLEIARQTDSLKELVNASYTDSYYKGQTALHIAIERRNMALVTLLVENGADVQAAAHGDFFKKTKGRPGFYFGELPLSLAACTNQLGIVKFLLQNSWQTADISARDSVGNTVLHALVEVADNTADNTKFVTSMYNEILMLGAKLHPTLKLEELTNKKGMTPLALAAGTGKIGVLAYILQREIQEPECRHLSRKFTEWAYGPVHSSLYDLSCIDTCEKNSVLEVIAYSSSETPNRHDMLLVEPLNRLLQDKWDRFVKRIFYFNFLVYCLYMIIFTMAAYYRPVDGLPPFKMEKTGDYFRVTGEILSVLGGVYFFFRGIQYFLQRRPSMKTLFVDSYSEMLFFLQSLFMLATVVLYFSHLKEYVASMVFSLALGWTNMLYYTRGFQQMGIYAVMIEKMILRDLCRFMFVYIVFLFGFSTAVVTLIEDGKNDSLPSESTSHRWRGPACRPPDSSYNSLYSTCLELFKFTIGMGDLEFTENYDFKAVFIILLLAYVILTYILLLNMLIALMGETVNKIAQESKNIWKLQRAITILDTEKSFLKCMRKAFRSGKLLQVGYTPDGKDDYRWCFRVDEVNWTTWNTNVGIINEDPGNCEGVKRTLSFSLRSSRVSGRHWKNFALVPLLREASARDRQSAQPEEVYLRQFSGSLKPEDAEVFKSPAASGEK
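Cells expressing TRPV1 were dye-loaded with Fluo-8 and read kinetically: 10 s baseline, 3 min after compound (agonist portion), then 2 min after EC20 capsaicin (allosteric enhancer portion). Calcium-bound dye fluorescence at 480/520 nm.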
TRPML1 blocker – inhibitors of human TRPML1 channel; Q9GZU1; TRPML1-inducible cells, Ca2+ dye fluorescence, FDSS; active compounds read low; inhibition of EC80 agonist-evoked calcium signal; 0.02% of 390,000 active; activity change, negative = inhibition, % (no concentration beside the values); AID 624415; in the data active means activity change below about -50%; inconclusive means about -30% to -50%; inactive means above about -30%;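 also: stimulus is agonist 54-4 at its EC80 concentration; % is scaled to controls: 0 for no effect and ±100 for the full control effect; compound concentration not given in the record; the text of the record puts the active cut at -80%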
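Calcium fluorescence in TRPML1-DL cells induced overnight with Tet: a 110 s read after compound pin addition, then a 110 s antagonist read after challenge with 54-4 at 4 uM final (EC80).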
TRPML1 agonist – activates the human TRPML1 channel; Q9GZU1; TRPML1-expressing cells, Ca2+ dye fluorescence, FDSS; host cell line not named in the record; reference of the full effect not given here; activation, % (concentration not given with the values); 0.12% of 410,000 active; AID 624414; in the data active = activation above about 50%; inconclusive = about 30% to 50%; inactive = below about 30%; also: 0% is about no effect; the text of the record puts the active cut at 80%
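Agonist activity was taken from a 110 s kinetic Ca2+ dye read on the FDSS after pinning compounds onto TRPML1-DL cells. The cells were seeded at 1,500/well with Tet inducer, incubated about 16 h, then dye-loaded at room temperature.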
* = called active by the depositor; & = joins results of further samples; [ ] = dose if it differs, or a comment.

For COc1ccc(NC(=O)C2CCCN(S(=O)(=O)c3cccnc3)C2)cc1 (stereo not given) the results were ClpP mod -0.1%, PINK1 modulator -0.3%, Menin-MLL FL inh 0.3, Sfp PPTase inh 14%, TRPV1 potentiator -1, TRPML1 blocker 22 and TRPML1 agonist -0.3.
For O=C(CSc1cccc[n+]1[O-])Nc1cccc(Oc2ccccc2)c1 the results were ClpP mod -0.3%, PINK1 modulator 2.3%, Menin-MLL FL inh 6.1, Sfp PPTase inh -29%, TRPV1 potentiator -18, TRPML1 blocker -3 and TRPML1 agonist -1.3.
Cc1ccc(NC(=O)NCCCN2CCCC2=O)cc1Cl was read as ClpP mod -0.2%, PINK1 modulator -1.6%, Menin-MLL FL inh 1.9, Sfp PPTase inh 13%, TRPV1 potentiator -8, TRPML1 blocker 7 and TRPML1 agonist -0.2.
`COc1ccc(CCNS(=O)(=O)c2ccc(F)cc2)cc1OC` gave ClpP mod -1.4%, Menin-MLL FL inh -0.8, Sfp PPTase inh 5%, TRPV1 potentiator -5, TRPML1 blocker 30 and TRPML1 agonist 0.1.
Screening CC(NC(=S)NC1CCCCC1)C(c1ccccc1)N1CCOCC1 (stereo not given) returned PINK1 modulator -1.2%, Menin-MLL FL inh -1.2, Sfp PPTase inh 12%, TRPV1 potentiator -27, TRPML1 blocker 13 and TRPML1 agonist 1.8.
COc1ccc(/C=C/C(=O)N2CCN(C)CC2)cc1OC was read as ClpP mod -22%, PINK1 modulator 0.5%, Menin-MLL FL inh 7.3, Sfp PPTase inh 7%, TRPV1 potentiator 5, TRPML1 blocker -9 and TRPML1 agonist -0.4.
For Cc1ccc(C2(CC(=O)Nc3nccs3)CCOC(C(C)C)C2)cc1 (stereo not given) the results were ClpP mod -5.9%, PINK1 modulator 6.7%, Menin-MLL FL inh 0.3, Sfp PPTase inh 3%, TRPV1 potentiator -10, TRPML1 blocker -17 and TRPML1 agonist 0.8.
Screening O=C(O)Cn1c2ccccc2c2ccccc21 returned PINK1 modulator -3.1%, Menin-MLL FL inh -0.4, Sfp PPTase inh 13%, TRPV1 potentiator 3, TRPML1 blocker -12 and TRPML1 agonist 1.7.
`CC(=O)Nc1cccc(NC(=O)C(=O)Nc2ccc3c(c2)N(C(=O)C2CC2)CCC3)c1` gave ClpP mod -1.3%, PINK1 modulator -1.7%, TRPV1 potentiator 27, TRPML1 blocker 1 and TRPML1 agonist 0.4.
For COC(=O)c1ccc(C2/C(=C(/O)c3ccc(OC)cc3)C(=O)C(=O)N2Cc2ccco2)cc1 (stereo not given) the results were ClpP mod 1.0%, PINK1 modulator 0.1%[38.3 µM], Menin-MLL FL inh 2.6, Sfp PPTase inh 22µM*, TRPV1 potentiator 4, TRPML1 blocker -4 and TRPML1 agonist -0.2.
Nc1nc(SCc2ccc([N+](=O)[O-])cc2)nc2nc3c(cc12)CCCC3 was read as ClpP mod -5.6%, PINK1 modulator inconclusive, Menin-MLL FL inh 2.5, Sfp PPTase inh 23%, TRPV1 potentiator 7, TRPML1 blocker -19 and TRPML1 agonist 0.3.
O=C(CNc1cccc(C(F)(F)F)c1)N/N=C/c1ccccc1C(=O)O was read as ClpP mod -0.3%, PINK1 modulator 0.8%, Menin-MLL FL inh 1.0, Sfp PPTase inh 7%, TRPV1 potentiator 1, TRPML1 blocker 1 and TRPML1 agonist -0.1.
CCOC(=O)C1(Cc2ccc(OC)cc2)CCN(C(=O)c2cc(C)nn2C)CC1 was read as ClpP mod -3.8%, PINK1 modulator 1.5%, Sfp PPTase inh 12%, TRPV1 potentiator 29, TRPML1 blocker -12 and TRPML1 agonist 1.3.
For Cc1oc(-c2ccc(Cl)cc2)nc1CS(=O)CC(=O)NCc1ccc(Cl)cc1 (stereo not given) the results were ClpP mod -8.4%, PINK1 modulator -0.1%, TRPML1 blocker 12 and TRPML1 agonist -0.6.
`Cc1ccc(Cl)cc1-c1ccc(/C=N/n2cnnc2)o1` gave ClpP mod -26%, PINK1 modulator -0.1%, Menin-MLL FL inh 2.8, Sfp PPTase inh 3%, TRPV1 potentiator -6, TRPML1 blocker 18 and TRPML1 agonist 1.9.
Screening COc1ccccc1CNCc1cccc(Oc2ccccc2)c1 returned ClpP mod -1.7%, PINK1 modulator 15%, Menin-MLL FL inh 1.5, Sfp PPTase inh -13%, TRPV1 potentiator 12, TRPML1 blocker 2 and TRPML1 agonist 0.8.
`CC(C)Cc1nc(NCCN2CCOCC2)c(C#N)c2c1COC(C)(C)C2` gave ClpP mod -17%, PINK1 modulator -1.4%, Menin-MLL FL inh 1.7, Sfp PPTase inh 19%, TRPV1 potentiator -16, TRPML1 blocker 6 and TRPML1 agonist 0.4.
For CCN(CC)C(=O)CSC1=C(C#N)C(c2ccco2)C(C(=O)OCCOC)=C(C)N1 (stereo not given) the results were ClpP mod 0.9%&-12%, PINK1 modulator 2.9%&3.0%, Menin-MLL FL inh 0.0, Sfp PPTase inh 56µM*, TRPV1 potentiator -2, TRPML1 blocker 19&17 and TRPML1 agonist 5.6&0.3.
Screening CCOC(=O)NC1Cc2ccccc2C1Sc1ccccn1 (stereo not given) returned ClpP mod -0.1%, PINK1 modulator 1.2%, Menin-MLL FL inh 1.3, Sfp PPTase inh 3% and TRPV1 potentiator 5.
CC1CCCN(C(=O)C2CCN(S(=O)(=O)c3cccc4nonc34)CC2)C1 (stereo not given) was read as PINK1 modulator -0.4%, Menin-MLL FL inh 0.4, Sfp PPTase inh 11%, TRPV1 potentiator -6, TRPML1 blocker 7 and TRPML1 agonist -0.3.
`COc1cc(C(=O)N=C2SC3CS(=O)(=O)CC3N2c2ccccc2)cc(OC)c1OC` (stereo not given) gave ClpP mod -1.2%, PINK1 modulator 2.1%, Menin-MLL FL inh 7.9, Sfp PPTase inh -1%, TRPV1 potentiator 5, TRPML1 blocker -2 and TRPML1 agonist -0.5.
For Cc1cccn2c(=S)[nH]nc12 the results were ClpP mod -9.9%, PINK1 modulator -0.4%, TRPML1 blocker 1 and TRPML1 agonist -0.1.
O=C(CCS(=O)(=O)c1cc2c3c(c1)CCN3C(=O)CC2)NCc1ccc(Cl)cc1 was read as ClpP mod 0.6%, PINK1 modulator 1.2%, TRPML1 blocker -12 and TRPML1 agonist -1.1.
`CC1CN(C(=O)CCC(=O)NCCc2ccccc2)c2ccccc2O1` (stereo not given) gave ClpP mod -0.2%, PINK1 modulator 0.4%, Menin-MLL FL inh 0.0, Sfp PPTase inh 0%, TRPV1 potentiator -17, TRPML1 blocker -2 and TRPML1 agonist 0.1.
C/C(=N/N1CCN(Cc2ccccc2)CC1)c1ccc(Br)cc1 was read as ClpP mod -1.8%, PINK1 modulator inconclusive, Menin-MLL FL inh -6.6, Sfp PPTase inh 31%[activator], TRPV1 potentiator inconclusive, TRPML1 blocker -11 and TRPML1 agonist -0.3.
`CCCCOC(=O)Nc1ccccc1C(=O)N1CCCC1` gave ClpP mod -1.1%, PINK1 modulator inconclusive, Menin-MLL FL inh 3.2, Sfp PPTase inh 15%, TRPV1 potentiator 0, TRPML1 blocker 15 and TRPML1 agonist 1.5.
`O=[N+]([O-])c1ccc(Cl)c(NC2=NCCCCC2)c1` gave PINK1 modulator 0.0%, Menin-MLL FL inh -0.8, Sfp PPTase inh 15%, TRPV1 potentiator 7, TRPML1 blocker 11 and TRPML1 agonist 0.0.
For COc1cc2c(cc1NC(=O)c1cc(-c3ccncc3)nc3ccc(C)cc13)oc1ccccc12 the results were ClpP mod -18%, PINK1 modulator 17%[38.3 µM], Menin-MLL FL inh 3.5, Sfp PPTase inh 0%, TRPV1 potentiator 11, TRPML1 blocker 6 and TRPML1 agonist 0.2.
Screening COC(=O)C1C(=O)c2c([nH]c(C(=O)OC3CCCCC3)c2C)CC1C (stereo not given) returned ClpP mod -1.9%, PINK1 modulator 7.3%, Menin-MLL FL inh 1.9, Sfp PPTase inh -5%, TRPV1 potentiator -9, TRPML1 blocker 5 and TRPML1 agonist 2.0.
`O=C(Nc1ccn(Cc2c(F)c(F)c(F)c(F)c2F)n1)c1cccc(Cn2cc([N+](=O)[O-])cn2)c1` gave ClpP mod -1.8%, PINK1 modulator -1.1%[38.3 µM], Menin-MLL FL inh 1.6, Sfp PPTase inh inconclusive, TRPV1 potentiator 4, TRPML1 blocker -7 and TRPML1 agonist 1.4.
CCC(=O)c1ccc(OCC(=O)N2CCN(S(=O)(=O)c3ccc(Cl)s3)CC2)cc1 was read as ClpP mod 0.6%, PINK1 modulator 2.7%, TRPV1 potentiator -3, TRPML1 blocker 18 and TRPML1 agonist -0.7.
COc1ccc(-c2nc3cc(C)ccn3c2NC(=O)c2ccc(F)cc2)cc1 was read as ClpP mod -1.5%, PINK1 modulator 5.0%, TRPML1 blocker 2 and TRPML1 agonist 0.4.
`CCN1CCN(c2sc(S(C)(=O)=O)nc2S(=O)(=O)c2ccc(Cl)cc2)CC1` gave ClpP mod 0.1%, PINK1 modulator -1.5%, Menin-MLL FL inh -2.9, Sfp PPTase inh 14%, TRPV1 potentiator -22, TRPML1 blocker -4 and TRPML1 agonist -0.9.
Screening COc1ccc(F)cc1C(=O)C1CCCN(C(=O)c2ocnc2C)C1 (stereo not given) returned ClpP mod -12%, PINK1 modulator 0.6%, Menin-MLL FL inh 6.1, Sfp PPTase inh -8%, TRPV1 potentiator -7, TRPML1 blocker -2 and TRPML1 agonist -0.1.
`CCOc1ccc(C2NC(=O)C(C#N)=C(S)N2c2ccc(OC)cc2)cc1OC` (stereo not given) gave ClpP mod -3.4%, PINK1 modulator -1.4%, Menin-MLL FL inh 4.9, Sfp PPTase inh 28µM*, TRPV1 potentiator 6, TRPML1 blocker 11 and TRPML1 agonist -0.8.
`CC1(C(=O)Nc2cccc(Br)c2)Cc2ccccc2C(=O)O1` (stereo not given) gave ClpP mod 1.4%, PINK1 modulator 9.7%, TRPML1 blocker 20 and TRPML1 agonist 2.1.

Copied from above for reference:
`CCOc1ccc(C2NC(=O)C(C#N)=C(S)N2c2ccc(OC)cc2)cc1OC` (stereo not given) gave ClpP mod -3.4%, PINK1 modulator -1.4%, Menin-MLL FL inh 4.9, Sfp PPTase inh 28µM*, TRPV1 potentiator 6, TRPML1 blocker 11 and TRPML1 agonist -0.8.
`CC1(C(=O)Nc2cccc(Br)c2)Cc2ccccc2C(=O)O1` (stereo not given) gave ClpP mod 1.4%, PINK1 modulator 9.7%, TRPML1 blocker 20 and TRPML1 agonist 2.1.
